From PubChem
A1 inh: inhibitors of A1. MEF A1-2A-BIM cells, caspase-Glo luminescence, 3 h; percent of clofoctol signal, DMSO as zero. caspase activation, % (no concentration beside the values). 0.51% of 21,000 active. AID 2241;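 active = most replicate scores above 10, or exactly half above 10 with mean activity above 10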;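 note: effector caspase 3 and 7 activity cleaving a DEVD luciferin substrate; 50 nL library stock added to about 30 µL; numbers are from one replicate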
BJeLR viability: lowers viability of BJeLR cells; viability loss activity score, % (test concentration not listed); 0.64% of 30,000 active; BJeLR fibroblasts viability, CellTiterGlo ATP luminescence, 48 h; HRASV12, hTERT and SV40 LT/ST transformed; AID 2275; in the data active = viability loss activity score above about 50%; about a fifth of its hits are not listed in these tables;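 note: higher score means fewer live cells and less ATP luminescence; stock transfer was 50 or 100 nL into about 30 µL; 0% = vehicle wells and 100% = a reference killing control; one replicate is shown; the record names a cut of 85%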
An asterisk follows results filed as active; nt = no result given. An excerpt; rates above refer to the full screens.

smiles	A1 inh	BJeLR viability
COc1ccc(/C=C/C(=O)O[C@H]2[C@H](OC3C4O[C@]4(CO)[C@H]4C(O[C@@H]5O[C@H](CO)[C@@H](O)[C@H](O)[C@H]5O)OC=C[C@@H]34)O[C@@H](C)[C@H](O)[C@H]2O)cc1 (stereo partly specified)	0.6	3.7
COc1ccc(Nc2nc(N)nc(CSC(=S)N(C)C3CCCCC3)n2)cc1	nt	-5.7
C[C@H](CO)N1C[C@H](C)[C@@H](CN(C)S(=O)(=O)c2cccs2)Oc2c(NC(=O)c3nc4ccccc4s3)cccc2C1=O	nt	0.4
C[C@H]1CN([C@@H](C)CO)C(=O)c2cccc(NS(=O)(=O)c3cn(C)cn3)c2O[C@@H]1CN(C)C(=O)NC1CCCCC1	nt	3.4
CCOC(=O)c1cnc2c(C)cc(C)cc2c1Nc1ccc(S(=O)(=O)Nc2ncccn2)cc1	0.7	2.1
NC(=O)c1ccccc1C(=O)c1ccccc1	0.5	-0.8
CCOC(=O)c1ccc(CNCc2ccccc2)cc1	-1.6	5.8
C[C@H]1CN([C@@H](C)CO)C(=O)c2cccc(NC(=O)NC3CCCCC3)c2O[C@H]1CN(C)C(=O)Nc1ccc(C(F)(F)F)cc1	nt	0.1

Next part.
smiles	A1 inh	BJeLR viability
Cc1cc(C(=O)Nc2cccc3c2O[C@H](CN(C)C(=O)Nc2c(C)noc2C)[C@@H](C)CN([C@H](C)CO)C3=O)n(C)n1	nt	0.3
CCC(C)NC(=O)c1cn(CC)c(=O)c2cc(OC)c(OC)cc12 (stereo unspecified)	nt	2.9
COc1ccc(NC(=O)N(C)C[C@H]2Oc3c(NC(=O)Nc4cccc5ccccc45)cccc3C(=O)N([C@H](C)CO)C[C@H]2C)cc1	nt	-2.5
O=C(Nc1cccc(-c2nc3cccnc3s2)c1)C1CC1	-0.2	-3.0
C[C@@H]1CN([C@H](C)CO)C(=O)c2cccc(N(C)C)c2O[C@H]1CN(C)Cc1ccc(Cl)c(Cl)c1	nt	0.5
N#CNC(=Nc1ccc(Cl)cc1)Oc1ccccc1	-0.2	0.8
C[C@@H]1CN([C@H](C)CO)C(=O)c2cc(NC(=O)Nc3ccc(F)cc3)ccc2O[C@@H]1CN(C)C(=O)Nc1ccc(F)cc1	-0.7	-6.8
CC(=C\c1ccccc1)/C(C)=N/O	0.1	-0.4

The list goes on:
smiles	A1 inh	BJeLR viability
Cc1cc(C(=O)Nc2cccc3c2O[C@H](CN(C)Cc2ccc(Oc4ccccc4)cc2)[C@H](C)CN([C@@H](C)CO)C3=O)n(C)n1	nt	4.1
CCOc1ccc(S(=O)(=O)Nc2nc3ccccc3nc2Nc2ccccc2)cc1	0.0	0.1
C[C@H](CO)N1C[C@H](C)[C@@H](CN(C)C(=O)Nc2ccccc2)Oc2c(NS(=O)(=O)c3cn(C)cn3)cccc2C1=O	nt	-1.1
COc1ccc(N2Cc3cccc(C(=O)NCC(OC)OC)c3C2=O)cc1	nt	0.4
Cc1ccc(-n2c(=O)c3c(C)c(C(=O)N(C)C)sc3n(Cc3ccc(F)cc3Cl)c2=O)cc1C	0.4	-1.2
C[C@H](CO)N1C[C@H](C)[C@@H](CN(C)Cc2ccc(Cl)c(Cl)c2)Oc2c(NC(=O)Nc3ccccc3)cccc2C1=O	nt	3.9
Cc1noc(C)c1NC(=O)N(C)C[C@@H]1Oc2ccc(NC(=O)Nc3ccccc3)cc2C(=O)N([C@@H](C)CO)C[C@@H]1C	0.2	3.6
COc1ccccc1C(=O)CC(=O)C(=O)Nc1sc2c(c1C#N)CCC2	nt	6.7

New compounds follow
smiles	A1 inh	BJeLR viability
C[C@H](CO)N1C[C@H](C)[C@@H](CN(C)Cc2ccc(Cl)c(Cl)c2)Oc2c(NS(=O)(=O)c3ccc(Cl)cc3)cccc2C1=O	nt	-5.7
C[C@H]1CN([C@@H](C)CO)C(=O)c2cccc(NC(=O)C3CCCCC3)c2O[C@@H]1CN(C)S(=O)(=O)c1cccs1	nt	1.0
C[C@@H]1CN([C@@H](C)CO)C(=O)c2cc(NC(=O)NC3CCCCC3)ccc2O[C@H]1CN(C)Cc1ccccc1	-0.3	4.7
C[C@@H]1CN([C@@H](C)CO)C(=O)c2cc(N(C)C)ccc2O[C@H]1CN(C)CC1CCCCC1	-0.2	2.6
Cc1nnc(NN2CCOCC2)[nH]c1=O	nt	0.2
COc1ccc(S(=O)(=O)N(C)C[C@H]2Oc3ccc(NS(=O)(=O)c4ccc(C)cc4)cc3C(=O)N([C@H](C)CO)C[C@H]2C)cc1	0.3	5.0
O=C(NC1CC1)c1ccc(CN(c2ccccc2)S(=O)(=O)c2ccccc2)cc1	-0.4	6.7
CC(C)NC(=O)Nc1cccc2c1O[C@H](CN(C)S(=O)(=O)c1ccc(Cl)cc1)[C@@H](C)CN([C@H](C)CO)C2=O	nt	-6.3

New compounds follow:
smiles	A1 inh	BJeLR viability
COC(=O)CSc1nnc(CNC(=O)c2ccccc2F)n1Cc1ccccc1	nt	-2.3
C[C@@H]1CN([C@@H](C)CO)C(=O)c2cc(NC(=O)Nc3ccc(C(F)(F)F)cc3)ccc2O[C@H]1CN(C)Cc1ccc2c(c1)OCO2	0.0	-1.6
CCCN(CCC)C(=O)c1cc(S(=O)(=O)N2CCc3ccccc32)cn1C	-0.1	3.1
CCN(CC)S(=O)(=O)N1CCCC(C(=O)NCc2ccc(C)cc2)C1 (stereo unspecified)	1.8	9.8
COc1ccc2c(c1)CCC1C2CCC2(C)C(=O)CCC12 (stereo unspecified)	1.0	-2.9
CNC[C@@H]1Oc2ccc(NS(=O)(=O)c3ccc(F)cc3)cc2C(=O)N([C@@H](C)CO)C[C@H]1C	0.2	2.5
C[C@H]1CN([C@@H](C)CO)C(=O)c2cccc(NS(=O)(=O)c3ccc(F)cc3)c2O[C@H]1CN(C)S(=O)(=O)c1ccccc1	nt	4.6
O/N=C/c1ccc(-c2cc(C(F)(F)F)cc(C(F)(F)F)c2)o1	-0.6	-4.7

(cont.)
smiles	A1 inh	BJeLR viability
O=C1N=c2ccccc2=C1c1c(O)n(-c2cccc(Br)c2)[nH]c1=O	nt	-3.0
CCc1ccc(NC(=O)N(Cc2ccco2)C(C)c2cccs2)cc1 (stereo unspecified)	0.4	2.4
CCNC(=O)c1ccc2nc(N3CCCCC3)sc2c1	-2.3	1.3
C[C@H]1CN([C@@H](C)CO)C(=O)c2cc(NC(=O)Cn3cnnn3)ccc2O[C@@H]1CN(C)C(=O)Nc1ccc2c(c1)OCO2	-0.3	3.3
Cc1ccc(S(=O)(=O)N(C)C[C@@H]2Oc3c(NS(=O)(=O)c4cn(C)cn4)cccc3C(=O)N([C@@H](C)CO)C[C@@H]2C)cc1	nt	2.8
O=C(CCSCc1ccccc1Cl)NCc1ccccc1Cl	-0.8	6.5
Clc1ccc2oc(-c3ccccc3)cc(=NCC3CCCO3)c2c1 (stereo unspecified)	1.1	-0.5
Cc1cc(C(=O)Nc2cccc3c2O[C@@H](CN(C)Cc2ccccc2)[C@@H](C)CN([C@H](C)CO)C3=O)n(C)n1	nt	3.3

(cont.)
smiles	A1 inh	BJeLR viability
Cc1ccc(N2C(=O)c3ccccc3C2C(=O)c2ccc(C)cc2O)cc1 (stereo unspecified)	0.8	0.1
COc1ccc(NC(=O)Nc2cccc3c2O[C@H](CN(C)S(=O)(=O)c2cccs2)[C@H](C)CN([C@H](C)CO)C3=O)cc1	nt	-3.4
Cc1ccc2c(=O)cc(-c3ccc(F)cc3)oc2c1	-2.0	0.0
COc1ccc(NC(=O)Nc2ccc3c(c2)C(=O)N([C@H](C)CO)C[C@H](C)[C@@H](CN(C)S(C)(=O)=O)O3)cc1	0.8	0.0
CCOC(=O)N1CCN(C(=O)CN(C)S(=O)(=O)c2ccc3c(c2)c(=O)n(C)c(=O)n3C)CC1	nt	0.1
Cc1noc(C)c1S(=O)(=O)Nc1ccc2c(c1)C(=O)N([C@@H](C)CO)C[C@H](C)[C@@H](CN(C)C(=O)Nc1ccccc1)O2	0.6	0.6
Cc1cc(C)nc(N2CC(=O)N(CCOc3ccc(Br)cc3)C2=O)n1	nt	-4.3
C[C@@H]1CN([C@@H](C)CO)C(=O)c2cccc(NC(=O)Nc3ccc(F)cc3)c2O[C@H]1CN(C)S(=O)(=O)c1cccs1	nt	1.5

Following part:
Sequence of screens – A1 inh	BJeLR viability
- O=C(NC(=O)c1csc(-c2ccc(C(F)(F)F)cc2Cl)n1)Nc1ccc(F)cc1
→ 0.2	-1.4
- O=C(NC1CCCC1)c1cc2c(Cl)nc3ccccc3c2s1
→ nt	-7.0
- C[C@H](CO)N1C[C@H](C)[C@@H](CN(C)S(=O)(=O)c2ccc(Cl)cc2)Oc2ccc(NC(=O)c3ccncc3)cc2C1=O
→ 0.1	0.4
- COc1ccc(NC(=O)N(C)C[C@H]2Oc3ccc(NC(=O)CCN4CCOCC4)cc3C(=O)N([C@H](C)CO)C[C@@H]2C)cc1
→ 0.5	-2.2
- Cn1c(=O)c2c(nc(SCC(=O)Nc3ccccc3F)n2Cc2ccccc2)n(C)c1=O
→ nt	3.5
- CCCNS(=O)(=O)c1ccc2c(c1)n(C)c(=O)c(=O)n2C
→ nt	0.7
- C[C@@H]1CN([C@@H](C)CO)C(=O)c2cc(NS(C)(=O)=O)ccc2O[C@@H]1CN(C)S(=O)(=O)c1ccc(F)cc1
→ 0.6	-0.8
- C[C@@H]1CN([C@@H](C)CO)C(=O)c2cccc(NS(C)(=O)=O)c2O[C@@H]1CN(C)Cc1ccc(-c2ccccc2)cc1
→ nt	-6.7
- COc1ccc(NC(=O)N(C)C[C@@H]2Oc3ccc(NS(=O)(=O)c4ccc(F)cc4)cc3C(=O)N([C@@H](C)CO)C[C@H]2C)cc1
→ 0.1	0.4
- C[C@H]1CN([C@@H](C)CO)C(=O)c2cc(NC(=O)CCCN(C)C)ccc2O[C@H]1CN(C)CC1CCCCC1
→ 1.7	3.8

Other results:
Sequence of screens – A1 inh	BJeLR viability
- C[C@H]1CN([C@@H](C)CO)C(=O)c2cc(NC(=O)Cc3ccccc3)ccc2O[C@H]1CN(C)C(=O)Nc1cccc2ccccc12
→ 1.4	-3.3
- C[C@H]1CN([C@@H](C)CO)C(=O)c2cccc(NC(=O)c3cnccn3)c2O[C@H]1CN(C)C(=O)Nc1ccccc1
→ nt	23.4
- COc1cc2cc(C(=O)O)cc(-c3ccc(C)cc3)c2cc1OC
→ -0.4	0.2
- Cc1onc(-c2ccccc2Cl)c1C1=NCCO1
→ 1.7	0.1
- Cc1ccc(-n2ncc3c2ncn2nc(Cc4ccccc4)nc32)cc1
→ -0.6	-8.9
- CC(C)NC(=O)N(C)C[C@H]1Oc2ccc(NS(=O)(=O)c3ccc(Cl)cc3)cc2C(=O)N([C@H](C)CO)C[C@@H]1C
→ -0.9	0.3
- Cc1c(O)c(C(=O)c2nn[nH]n2)c(=O)n(-c2ccccc2)c1-c1ccccc1
→ -0.8	-4.1
- CCc1ccccc1NC(=O)C(CC)n1c2ccccc2c2nc(=O)cc(C)n21 (stereo unspecified)
→ -0.3	-6.9
- O=C(NCc1csc2ccc(Cl)cc12)c1ccc(C(F)(F)F)cc1
→ nt	4.2
- CCOC(=O)N1CCc2c(sc3c2c(=O)n(Cc2ccccc2)c(=O)n3CC(=O)NC(C)CC)C1 (stereo unspecified)
→ 0.7	-6.7

Continued:
Sequence of screens – A1 inh	BJeLR viability
- C[C@@H]1CN([C@H](C)CO)C(=O)c2cccc(NS(=O)(=O)c3ccc(F)cc3)c2O[C@@H]1CN(C)C(=O)Nc1ccc(C(F)(F)F)cc1
→ nt	0.1
- CC(C)NC(=O)Nc1ccc2c(c1)C(=O)N([C@@H](C)CO)C[C@H](C)[C@@H](CN(C)S(=O)(=O)c1ccc(F)cc1)O2
→ -0.1	-0.7
- O=C1NCCN/C1=C/C(=O)c1ccc(Br)cc1
→ -3.8	20.4
- CCc1ccc(NC(=O)c2cc3c(=O)oc4ccc(C)cc4c3s2)cc1
→ nt	1.3
- Cc1cc(C)n(-c2ccc(Cl)c(C(=O)OCc3ccccc3)c2)n1
→ 0.8	-1.3
- C/C(=N\S(=O)(=O)c1ccc(C)cc1)N1CCCN(S(=O)(=O)c2ccc(C)cc2)C1C(C)C (stereo unspecified)
→ -0.2	0.4
- CCOC(=O)CCn1cc(F)c(=O)[nH]c1=O
→ 0.3	-6.4
- C(=Nc1ccc(N2CCOCC2)cc1)c1ccc(Sc2nc3ccccc3[nH]2)o1
→ 0.2	-5.4
- COc1ccc(S(=O)(=O)N(C)C[C@H]2Oc3c(NC(=O)NC4CCCCC4)cccc3C(=O)N([C@H](C)CO)C[C@@H]2C)cc1
→ nt	-2.0
- COc1ccc(S(=O)(=O)N(C)C[C@H]2Oc3c(NS(C)(=O)=O)cccc3C(=O)N([C@@H](C)CO)C[C@H]2C)cc1
→ nt	-4.6
- C[C@@H]1CN([C@@H](C)CO)C(=O)c2cccc(NC(=O)c3nc4ccccc4s3)c2O[C@H]1CN(C)Cc1ccccc1
→ nt	-1.6
- Cc1noc(C)c1NC(=O)Nc1ccc2c(c1)C(=O)N([C@H](C)CO)C[C@H](C)[C@H](CN(C)CC1CCCCC1)O2
→ 0.1	-0.3
- COC(=O)CCn1c(=O)c2cccn2c2ccccc21
→ -0.8	-1.3

Complete entries from above. Order of screens: A1 inh	BJeLR viability
CC(C)NC(=O)Nc1ccc2c(c1)C(=O)N([C@@H](C)CO)C[C@H](C)[C@@H](CN(C)S(=O)(=O)c1ccc(F)cc1)O2 is entered as -0.1	-0.7
CCOC(=O)CCn1cc(F)c(=O)[nH]c1=O is entered as 0.3	-6.4
COc1ccc(S(=O)(=O)N(C)C[C@H]2Oc3c(NC(=O)NC4CCCCC4)cccc3C(=O)N([C@H](C)CO)C[C@@H]2C)cc1 is entered as nt	-2.0
C[C@@H]1CN([C@H](C)CO)C(=O)c2cccc(NS(=O)(=O)c3ccc(F)cc3)c2O[C@@H]1CN(C)C(=O)Nc1ccc(C(F)(F)F)cc1 is entered as nt	0.1
COc1ccc(S(=O)(=O)N(C)C[C@H]2Oc3c(NS(C)(=O)=O)cccc3C(=O)N([C@@H](C)CO)C[C@H]2C)cc1 is entered as nt	-4.6
